CBX7 inh: blocks human CBX7 binding to H3K27me3 peptide. AlphaScreen His6-CBX7 / biotin-H3K27me3 peptide binding; hits give low values. normalised signal (fraction of DMSO) (concentration not given with the values). hit rate 1.1% among 66,000. AID 1224903; in the data active = normalised signal below about 0.5;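 note: 100 nL library stock added to about 20 µL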
Target sequence (O95931 whole entry, looked up): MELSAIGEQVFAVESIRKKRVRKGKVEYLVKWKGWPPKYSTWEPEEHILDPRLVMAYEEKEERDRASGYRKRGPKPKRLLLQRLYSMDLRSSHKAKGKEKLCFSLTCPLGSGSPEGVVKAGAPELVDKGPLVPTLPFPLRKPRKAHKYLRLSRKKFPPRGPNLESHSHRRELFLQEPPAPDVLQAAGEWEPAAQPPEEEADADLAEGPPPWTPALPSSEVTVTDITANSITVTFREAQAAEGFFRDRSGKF
CBX7 inh z-score: further read-out of CBX7 inh, marked with its call; z-score; measured here: z-score of CBX7 signal; some inactives read as strong as hits; reference of the scale not given here;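 same signal on another scale; lower means less binding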
Starred values were filed as active, the others as inactive. Not all compounds are listed. The share of hits here may be higher or lower than overall.

Results follow in this order: CBX7 inh	CBX7 inh z-score
Cc1ccc(-c2nc(-c3ccccc3)no2)cc1
    1.03	0.123
Cc1nc2cc(C(=O)NCCC3=CCCCC3)ccc2n1-c1ccc(Br)cc1
    0.923	-2.06
CCCOC(=O)c1c(NC(=O)CCc2ccc(OC)cc2)sc2c1CCCCC2
    1.02	0.184
CN1CCN(C(=O)CC(C(=O)N2CCc3ccccc32)n2ccnc2)CC1 (configuration not stated)
    1.1	2.28
CCc1ccc(NC(=O)CSc2nc(-c3ccc4c(c3)OCO4)cn2-c2ccc(C)cc2)cc1
    0.681	-7.61
O=C(Nc1ccccc1C(=O)NC1CCCCC1)c1cccc(S(=O)(=O)N2CCOCC2)c1
    1.11	1.1
Cc1cc(Br)ccc1NC(=O)CCc1nc(-c2ccccc2F)no1
    0.998	-0.0688
Cn1c(C(=O)N2CCCC(C(=O)NCc3ccccc3)C2)cc2sccc21 (configuration not stated)
    0.902	-2.81
COc1ccc(-c2cc(C(=O)Nc3sc4c(c3C#N)CCCC4)no2)cc1
    1.13	0.749
O=C(NCc1cccnc1)[C@H](CSCc1ccccc1)N1Cc2ccccc2C1=O
    0.923	-1.74
CCCCN(CCCC)CCNC(=O)Cn1nc(-c2ccc(Cl)cc2)ccc1=O
    1.04	1.76
CCOc1ccc(NC(=O)CC2Sc3ccccc3NC2=O)cc1 (configuration not stated)
    1.07	2.57
O=C(Cn1ncc2c1-c1ccccc1OC2)N1CCN(c2ccc(F)cc2)CC1
    1.11	1.4
Cc1c(Cc2ccccc2)c(=O)oc2cc(O)ccc12
    1.16	1.72
Cc1cc2ccccc2c(=O)n1CC(=O)N1CCOCC1
    1.07	1.59
O=C1Nc2cc(C(=O)N(Cc3ccccc3Cl)C3CCCC3)ccc2Sc2ccccc21
    1.06	1.67
COc1ccccc1C(=O)N1CCN(c2ccc3nnc(C)n3n2)CC1
    0.812	-3.39
Cc1cccc(C)c1NC(=O)C1(NC(=O)c2ccn[nH]2)CCCCC1
    1.03	0.489
CCOC(=O)N1CCN(c2c(NCCN(C)Cc3ccccc3)c(=O)c2=O)CC1
    1.04	0.797
CCN1CCN(c2cc(C)c3cc(NC(=O)CNC(C)=O)ccc3n2)CC1
    1.13	0.861

Later entries
Results follow in this order: CBX7 inh	CBX7 inh z-score
COc1ccccc1CNC(=O)C1CCN(Cc2nc(-c3ccc(Cl)cc3)oc2C)CC1
    1.01	0.138
Cc1cc(N2CCC(C)CC2)nc2ccc(N3C(=O)CCC3=O)cc12
    1.03	0.784
COc1ccccc1N1C(=O)CC(N2CCN(C)CC2)C1=O (configuration not stated)
    0.994	-0.163
CCCCN(CC)S(=O)(=O)c1ccc2[nH]c(=O)cc(C(=O)NCCc3ccc(Cl)cc3)c2c1
    0.974	-0.873
Cc1ccc2oc3c(c2c1)-c1oc(C)cc1C(C)(c1ccccc1)CC3 (configuration not stated)
    0.847	-1.2
Cc1ccc(Nc2cc(C(=O)NCc3ccccc3Cl)c3ccccc3n2)c(C)c1
    1.01	0.111
CCC(=O)Nc1c(C(=O)Nc2ccccc2F)oc2ccccc12
    1.05	1.42
Cc1cc(C)cc(-n2ccnc2SCC(=O)Nc2ccccc2C(F)(F)F)c1
    0.898	-0.101
CC(C)CCNC(=O)c1cc(Nc2ccccc2)nc2ccccc12
    1.08	2.16
O=C(NCCCc1ccccc1)[C@H](CSCc1ccccc1)N1Cc2ccccc2C1=O
    0.882	-2.68
Cc1ccccc1OCC(=O)Nc1ncc(Cc2ccccc2Cl)s1
    1	0.00264
CN(Cc1ccccc1)C(=O)CSc1nc(NCCc2ccccc2)c2ccccc2n1
    1	0.0768
COc1ccc(C2(CNC(=O)c3ccc(OC)cc3OC)CCOCC2)cc1
    1.01	0.326
CC(CCc1ccccc1)NC(=O)c1csc2c1CCCC2 (configuration not stated)
    1.12	3.83
CC(C)CC(C(=O)Nc1nccs1)N1C(=O)c2ccccc2C1=O (configuration not stated)
    1.01	0.032
COc1ccccc1C(=O)Nc1ccc2nc(N3CCN(c4ncccn4)CC3)cc(C)c2c1
    1.11	0.778
CC(NC(=O)c1cc(-c2ccc3c(c2)OCO3)on1)c1ccccc1 (configuration not stated)
    0.977	-0.315
COc1ccc(OC)c(-c2cc(C(=O)N3CCN(C(c4ccccc4)c4ccccc4)CC3)no2)c1
    0.946	-0.572
CCOc1ccc(-c2nc(CSCC(=O)NCCc3ccc(C)cc3)c(C)o2)cc1
    0.86	-1.93
COc1ccc(S(=O)(=O)N(CC(=O)Nc2cccc(OC)c2)c2ccc(C)cc2)cc1
    1.01	0.175

Further entries.
Results follow in this order: CBX7 inh	CBX7 inh z-score
COc1ccc(-c2cc(C(=O)N3CCN(C(c4ccccc4)c4ccccc4)CC3)no2)cc1
    0.942	-1.27
CC1CCN(S(=O)(=O)c2ccc3c(c2)N(CC(=O)N2CCc4ccccc4C2)C(=O)CO3)CC1
    0.994	-0.205
O=C(c1ccccc1Br)N(Cc1cccs1)C1CCS(=O)(=O)C1 (configuration not stated)
    1.14	1.53
CCOc1ccccc1CNC(=O)CSCc1cnn(-c2ccccc2)c1-n1cccc1
    0.974	-1.16
Cc1cc(C)cc(-n2ccnc2SCC(=O)Nc2cc(C)ccc2C)c1
    0.807	-2.94
CCc1nnc(NC(=O)CSc2ncn[nH]2)s1
    1	0.00306
COc1cc(OC)cc(C(=O)Nc2cc(-c3nc4cc(Cl)ccc4o3)ccc2C)c1
    1.11	1.78
Fc1ccc(CN2CCN(C3CCN(Cc4ccccc4)CC3)CC2)cc1
    0.894	-1.16
CC1=Nc2cc(C(=O)NCCCN3CCOCC3)ccc2Sc2ccc(C)cc21
    1.03	1.57
O=C1CC(NCCc2ccc(Cl)cc2)C(=O)N1c1ccc(Br)cc1 (configuration not stated)
    1.03	0.868
CCc1ccc2nc(Nc3nc4ccccc4c(=O)[nH]3)nc(C)c2c1
    0.989	-0.0135
O=C(CCCn1c(=O)[nH]c2cc(Cl)ccc2c1=O)N1CCN(Cc2ccccc2)CC1
    1.05	2.04
Cc1ccc2nc(Nc3ccc4[nH]c(=O)[nH]c4c3)c(-n3nc(C)cc3C)nc2c1
    1.03	0.696
Cc1ccccc1Cc1c(C)nc2nc(SCC(=O)NC3CCCC(C)C3C)nn2c1C (configuration not stated)
    0.774	-0.392
Cc1ccc(C)c(CN2C(=O)CSc3ccc(C(=O)NCCCN4CCOCC4)cc32)c1
    0.996	-0.174
CCOc1ccc(CCNC(=O)CCCc2cc(-c3ccc(OCC)cc3)on2)cc1
    1.08	1.47
CCN(CC)S(=O)(=O)c1ccc(C(=O)Nc2nnc(C3CC3)o2)cc1
    0.00295*	-2.79*
O=C(CCN1CCOCC1)Nc1ccc(Cl)cc1
    1.21	1.87
Cc1ccc2oc(-c3cccc(N)c3C)nc2c1
    0.822	-1.82
O=C1C2C3C=CC(CO)(O3)C2C(=O)N1c1cc(C(F)(F)F)ccc1Cl (configuration not stated)
    0.906	-1.47

A second format for 13 compounds above.
SMILES	CBX7 inh	CBX7 inh z-score
COc1ccc(-c2cc(C(=O)N3CCN(C(c4ccccc4)c4ccccc4)CC3)no2)cc1	0.942	-1.27
CC1CCN(S(=O)(=O)c2ccc3c(c2)N(CC(=O)N2CCc4ccccc4C2)C(=O)CO3)CC1	0.994	-0.205
O=C(c1ccccc1Br)N(Cc1cccs1)C1CCS(=O)(=O)C1 (configuration not stated)	1.14	1.53
CCOc1ccccc1CNC(=O)CSCc1cnn(-c2ccccc2)c1-n1cccc1	0.974	-1.16
Cc1cc(C)cc(-n2ccnc2SCC(=O)Nc2cc(C)ccc2C)c1	0.807	-2.94
CCc1nnc(NC(=O)CSc2ncn[nH]2)s1	1	0.00306
COc1cc(OC)cc(C(=O)Nc2cc(-c3nc4cc(Cl)ccc4o3)ccc2C)c1	1.11	1.78
Fc1ccc(CN2CCN(C3CCN(Cc4ccccc4)CC3)CC2)cc1	0.894	-1.16
CC1=Nc2cc(C(=O)NCCCN3CCOCC3)ccc2Sc2ccc(C)cc21	1.03	1.57
O=C1CC(NCCc2ccc(Cl)cc2)C(=O)N1c1ccc(Br)cc1 (configuration not stated)	1.03	0.868
CCc1ccc2nc(Nc3nc4ccccc4c(=O)[nH]3)nc(C)c2c1	0.989	-0.0135
O=C(CCCn1c(=O)[nH]c2cc(Cl)ccc2c1=O)N1CCN(Cc2ccccc2)CC1	1.05	2.04
Cc1ccc2nc(Nc3ccc4[nH]c(=O)[nH]c4c3)c(-n3nc(C)cc3C)nc2c1	1.03	0.696

Remaining list, next part
Results follow in this order: CBX7 inh	CBX7 inh z-score
CCc1ccc(CNC(=O)CCN2C(=O)COc3ccccc32)cc1
    1.02	0.717
COc1ccc2nc(NC(=O)c3ccc(S(=O)(=O)N4CCOCC4)cc3)sc2c1
    1.09	0.892
Cc1cc(C(=O)N2CCN(c3ccccn3)CC2)nn1-c1ccccc1
    1.05	1.53
O=C(C1CCC1)N1CCc2cc(S(=O)(=O)N3CCN(c4cccc(Cl)c4)CC3)ccc21
    0.994	-0.197
O=C(Nc1cccc(Cl)c1)c1cc(C2CC2)on1
    1	-0.00141
O=C(NCc1ccc(F)cc1)C1C2C=CC3(CN(Cc4cccs4)C(=O)C13)O2 (configuration not stated)
    1.05	2.59
CCOC(=O)c1sc2ncn(CC(=O)Nc3cccc(C)c3)c(=O)c2c1C
    1.03	1.25
Cc1cccc(CSc2nc3ccncc3n2Cc2nc(-c3ccccc3)oc2C)c1
    0.98	-0.283
Cc1ccc(C(=O)CC2(O)C(=O)Nc3ccccc32)cc1 (configuration not stated)
    1.03	0.129
Cc1ccc(NC(=O)C2CCN(S(=O)(=O)c3ccc4c(c3)CCC(=O)N4)CC2)c(C)c1
    1	0.0355
O=S(=O)(c1ccc(C2CCCCC2)cc1)N(CCCN1CCOCC1)Cc1cccs1
    0.873	-1.38
O=C(O)c1cc(N2C(=O)C3C4c5ccccc5C(c5ccccc54)C3C2=O)ccc1Cl (configuration not stated)
    0.807	-3.06
O=C(CCn1nc(-c2ccccc2)ccc1=O)NCCN1CCCC1
    1.25	0.505
CCN(CCCNC(=O)CCc1nc(-c2ccc(OC)cc2)no1)c1ccccc1
    0.949	-1.42
Fc1ccc(-c2cc(-c3nc(-c4ccccc4Cl)no3)c3ccccc3n2)cc1
    1.09	2.5
COc1ccccc1-c1cc2nc(C)c(CCC(=O)NC3CCCCCC3)c(C)n2n1
    0.86	-2.3
COc1ccc(CNC(=O)CCC(=O)Nc2ccc3nc(N4CCOCC4)cc(C)c3c2)cc1
    1.01	0.603
CCc1cc(=O)n2[nH]c(C)c(-c3ccccc3OC)c2n1
    1.1	1.68
Cc1cc(C)c(Cn2c(=O)n(CCC(=O)NCc3ccccc3)c(=O)c3sccc32)c(C)c1
    1.01	0.222
COc1ccc(OC)c2[nH]c(=O)c(CCNC(=O)c3cccc(C)c3)cc12
    1.04	1.57

The list goes on:
Results follow in this order: CBX7 inh	CBX7 inh z-score
CC1CCCC(NC(=O)CCCC2=NS(=O)(=O)c3ccccc3N2)C1C (configuration not stated)
    1.16	1.69
Cc1ccc(C2CC(C(F)(F)F)n3nc(C(=O)NCCc4ccccc4)cc3N2)cc1 (configuration not stated)
    1.02	0.323
Cc1nn(Cc2ccc(Cl)c(Cl)c2)c(C)c1NC(=O)c1cc(-c2ccc(O)cc2)on1
    1.03	0.847
O=C(Cn1nc(-c2ccccc2)c2ccccc21)NCc1ccc(F)cc1
    1.18	1.94
O=C(Cn1ncc2c1-c1ccccc1OC2)Nc1ccccc1F
    0.923	-1.11
Cc1c(C(=O)N2CCCCC2)oc2ccc(S(=O)(=O)N3CCCCC3)cc12
    0.849	-2.08
CN1CCN(c2nc(-c3cccs3)cc(C(F)(F)F)n2)CC1
    0.903	-0.777
CC1CCN(S(=O)(=O)c2ccc(F)c(C(=O)Nc3ccc(F)c(Cl)c3)c2)CC1
    1.07	0.539
O=C(NCCc1ccc(Cl)cc1)c1cc(Nc2cccc(C(F)(F)F)c2)nc2ccccc12
    1.46	12.8
COC(=O)c1ccc(Nc2nc(N3CCN(C)CC3)c3ccccc3n2)cc1
    1.04	0.398
Cc1nc2ccc(S(=O)(=O)N(C)CC(=O)NCCCc3ccccc3)cc2s1
    1.38	2.2
CCOc1ccc(C(=O)Nc2cccc(C)c2)cc1Br
    0.93	-0.728
CC1CCCCC1NC(=O)C1CCC(CNS(=O)(=O)c2cccc3cccnc23)CC1 (configuration not stated)
    1.08	3.5
CCC(C)NC(=O)C1CCN(Cc2nc(-c3ccc(Cl)cc3)oc2C)CC1 (configuration not stated)
    0.983	-0.176
CC1CCCN(S(=O)(=O)c2ccc3[nH]c(=O)cc(C(=O)NCCCN4CCCCC4)c3c2)C1 (configuration not stated)
    1.06	1.99
CC(C)Oc1cccc(C(=O)Nc2cccc(-c3nc4ncccc4o3)c2)c1
    0.883	-0.795
CC(=O)N1CCc2cc(S(=O)(=O)NCCC(=O)NCc3ccc4c(c3)OCO4)ccc21
    0.923	-1.44
COc1cc(OC)cc(-c2nc3nc(C)c(CCC(=O)Nc4ccccc4)c(C)n3n2)c1
    0.989	-0.221
CCOC(=O)c1cnc2c(C)cc(Cl)cc2c1Nc1ccccc1C
    1.19	2.03
CCOc1ccc(NC(=O)c2cc3c(s2)-c2c(C)cccc2OC3)cc1
    1.03	1.19

Next part.
Results follow in this order: CBX7 inh	CBX7 inh z-score
Cc1nnc(NC(=O)c2cccc(Cl)c2)s1
    1.05	0.525
Fc1ccc(C(CCCN2CCN3CCCCC3C2)c2ccc(F)cc2)cc1 (configuration not stated)
    1.01	0.0713
Cc1ccc2cc(CCNC(=O)CCC3CCCCC3)c(=O)[nH]c2c1C
    1.06	1.24
COc1ccc(C(c2sc3nc(C)nn3c2O)N2CC(C)CC(C)C2)cc1OC (configuration not stated)
    0.991	-0.413
COc1ccc(C)cc1NC(=O)Cn1cnc2sc3c(c2c1=O)CCCC3
    1.09	2.41
CN1CCN(C(=O)c2nn3c(C(F)(F)F)cc(-c4ccc(Cl)cc4)nc3c2Cl)CC1
    0.95	-0.641
COc1ccc(OC)c(CCNC(=O)c2cc3ccccn3n2)c1
    1.1	0.689
